Screens as filed in PubChem BioAssay.
Mtb growth: Mycobacterium tuberculosis H37Rv growth inhibition, cell based, confirmatory dose response (AID 1949); most inactive calls were filed without a number and no value below 0 was filed; one-dose inhibition, % at 10 µg/mL; IC50 in µg/mL for titrated hits; actives 1.6% (n = 100,000);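 active means confirmed in a dose series; inconclusive means about 50% or more but not retested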;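 further: bacteria grown 7 days with compound before Alamar blue readout; 0% = untreated bacteria and 100% = reference antibiotic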
* marks the source's active call; other numbers are inactive results; i = inactive; ? = inconclusive.

Compound | Mtb growth
Cc1cc(N2C(=O)CC(N3CCC(C(=O)N4CCOCC4)CC3)C2=O)no1 (stereo not drawn) | i
O=C(Cn1cnc2ccccc21)N/N=C/c1cc(Br)ccc1O | i
O=C(O)c1ccc(CNC(=O)c2ccc3c(c2)C(=O)N(Cc2ccco2)C3=O)cc1 | i
O=C(NN1C(=O)c2ccccc2C1=O)C1CCCCC1 | i
COc1ccc(C(C)NC(=O)C(C)c2ccccc2)cc1 (stereo not drawn) | i
CN(C(=O)c1ccc(Br)o1)C1(C)CCS(=O)(=O)C1 (stereo not drawn) | i
COc1cc(OC)c(OC)cc1CNc1cc(C)cc(C)c1 | i
CCOC(=O)C1CCCN(C(=S)c2ccc(Cl)cc2)C1 (stereo not drawn) | i
O=C(CCCOc1ccc(Cl)cc1Cl)NCCCn1ccnc1 | 0%
Cn1c(NCCc2ccccc2)cc(=O)n(C)c1=O | i
O=C(Nc1ccc(C(=O)N2CCCC2)cc1)c1ccc2c(c1)OCO2 | 1%
O=C(COc1ccc(-c2ccccc2)cc1)NNC(=S)NCc1ccc(F)cc1 | i
COC(=O)c1cc2c(cc1[N+](=O)[O-])OCO2 | i
N#Cc1cc(Oc2ccc(Br)cc2)c(N2CCCCC2)cc1C#N | 4%
CCOc1ccc(Br)cc1CNCCN1CCOCC1 | i
CCCCC(=O)Nc1cccc(C)c1C | 7%
COc1cccc(CO)c1OCC(=O)Nc1ccc(F)cc1 | 4%
COc1cc(C2NC(=O)NC(C)=C2C(=O)OC(C)C)cc(Br)c1O (stereo not drawn) | i
CCCC(=O)Nc1sc(CC)cc1C(=O)OCC | i
Cc1cc(C)c(S(=O)(=O)N(C)CC(=O)N2CCC(C(N)=O)CC2)c(C)c1 | i
OCc1nc2ccccc2n1Cc1ccc2ccccc2c1 | i
Cc1cc2c(=O)n(Cc3ccco3)c(SCc3cc(=O)[nH][nH]3)nc2s1 | i
COc1ccc(-c2nc(NCCO)c3ccccc3n2)cc1 | 0%
COC(=O)c1ccccc1NC(=O)c1ccccc1N(C)S(=O)(=O)c1ccccc1 | i
C=CCn1c(Cc2ccc(OC)cc2)nnc1SCC(=O)Nc1cc(C(F)(F)F)ccc1Cl | i

Next section
Compound | Mtb growth
C=CCOc1c(Br)cc(CNc2ccc(S(N)(=O)=O)cc2)cc1OCC | i
C=CCn1c(SCC(=O)Nc2ccc(Cl)cc2)nnc1C1CC1 | i
CC(=O)c1c(C)n(CC(=O)O)c2ccccc12 | i
CC1Cc2ccccc2N1C(=S)Nc1ccc(S(N)(=O)=O)cc1 (stereo not drawn) | i
CCOC(=O)C1CCN(C(=O)C(C)(C)Oc2ccc(Cl)cc2)CC1 | i
Nc1cc(=O)[nH]c(=S)n1-c1ccccc1Cl | i
COc1cccc(OCCn2cc(C(=O)C3CC3)c3ccccc32)c1 | ?
CCOc1ccc(Nc2nc(-c3ccccn3)cs2)cc1 | <0.1µg/mL*
Cc1sc2nc(SCC(=O)Nc3ccccc3Cl)n(-c3ccc(Cl)cc3)c(=O)c2c1C | 21%
O=C(NCc1ccco1)c1ccc(NS(=O)(=O)c2cccc(C(F)(F)F)c2)cc1 | i
Cc1ccc(C(=O)Nc2ccc3oc(=O)ccc3c2)cc1Cl | i
Cc1ccc(-c2csc3ncn(CC(=O)N4CCC(C)CC4)c(=O)c23)cc1 | i
N/C(=N\OC(=O)Oc1ccccc1)c1cccc([N+](=O)[O-])c1 | i
CNC(=S)NCCc1c[nH]c2ccc(OC)cc12 | 2%
Cc1cc(Cl)ccc1OCC(=O)Nc1cccc2c1CCCC2 | i
Cc1cc(C(=O)Nc2ccc3c(c2)OCCO3)cs1 | i
O=C(N=Nc1c(O)[nH]c2ccc(Br)cc12)c1n[nH]c2c1CCCC2 | 42%
Cc1cc(C)nc(SCC(=O)C2CC2)n1 | i
Cc1ccc(-c2nnc3c4ccccc4c(C)nn23)cc1S(=O)(=O)NC1CCCCC1 | i
Cc1nn(Cc2ccc(Br)cc2)c(C)c1[N+](=O)[O-] | 5%
COc1cc(NC(=O)COc2cc(C)c(Cl)c(C)c2)ccc1NC(=O)c1cccs1 | 0%
Cc1ccc(-n2c(CCc3ccccc3)nnc2SCC(=O)N2CCOCC2)cc1C | i
O=C(NCCOc1ccc(F)cc1)c1ccccc1Br | i
O=C(Nc1cccc(-c2cc3ccccc3oc2=O)c1)c1sc2c([N+](=O)[O-])cccc2c1Cl | i
O=C(C1CC2CCC1C2)N1CCN(c2ccc(Cl)cc2)CC1 (stereo not drawn) | i

The listing continues.
Compound | Mtb growth
Cc1ccc(Cl)cc1NC(=O)CN(C)S(=O)(=O)c1cc(Cl)ccc1Cl | i
Cc1ccccc1-n1c(SCC(=O)Nc2ccccc2)nc2sc3c(c2c1=O)CCC3 | i
COC(=O)c1ccc(OC(=O)C23CCC(C)(C(=O)O2)C3(C)C)cc1 (stereo not drawn) | i
Cc1ccc(S(=O)(=O)N(CC(=O)Nc2ccccc2C(=O)NC(C)C)c2cccc(C)c2)cc1 | i
CC(C)CNC(=O)c1cnn2c(C(F)F)cc(-c3ccccc3)nc12 | i
Cc1cc(C)cc(OCC(=O)Oc2ccc(F)cc2)c1 | i
O=C(CCc1ccccc1)Nc1ccc(N2CCCC2=O)cc1 | i
CC(=O)Nc1ccc(S(=O)(=O)Nc2ccc(C)c([N+](=O)[O-])c2)cc1 | i
COc1ccc(Oc2ccc(NC(=O)CCC(=O)O)cc2)cc1 | i
Cc1nn(C)cc1CN(C)C(=O)c1sc2cc([N+](=O)[O-])ccc2c1Cl | i
CC12CCC(C(=O)Nc3ccc(SC(F)F)cc3)(CC1=O)C2(C)C (stereo not drawn) | ?
CCOC(=O)N1CCN(C(=O)CN(C)S(=O)(=O)c2c(C)cc(C)cc2C)CC1 | i
COc1cc(CNc2ccc(F)c(Cl)c2)ccc1OCC(=O)NC1CCCCC1 | 5.5µg/mL*
COC(=O)C1=C(C)n2nnnc2NC1c1cc2ccccc2o1 (stereo not drawn) | i
COc1ccc(C(=O)NC(=S)Nc2sc3c(c2C#N)CCCCCC3)cc1OC | i
COc1ccc(CCNCc2ccc(OCC(=O)N3CCCCC3)c(OC)c2)cc1OC | i
Cc1ccc(C)c(C(=O)O/N=C(\N)c2ccccc2)c1 | i
CC(C)(C)N(Cc1ccccc1)C(=O)c1c(F)c(F)c(F)c(F)c1F | i
COc1ccc(OC)c(NC(=O)CSc2nnc(NC(=O)c3ccc(C)cc3)s2)c1 | 2%
O=C(Nc1ccc2c(c1)OCCO2)C1CCN(S(=O)(=O)c2cc(Cl)ccc2Cl)CC1 | 3%
O=C(O)CCCN1C(=O)c2cccc3c([N+](=O)[O-])ccc(c23)C1=O | i
O=C(Nc1ccccc1C(=O)N1CCOCC1)c1ccc(Br)cc1 | i
CCOc1ccc(C(=O)Nc2ccccc2C#N)cc1[N+](=O)[O-] | i
CCN1CCN(Cc2c(C)[nH]c3ccc(C(=O)OC)cc3c2=O)CC1 | i
COc1cc([N+](=O)[O-])ccc1NC(=S)N1CCN(c2cccc(C(F)(F)F)c2)CC1 | i

Random excerpt: 5 compounds from above
Compound | Mtb growth
COc1ccc(Oc2ccc(NC(=O)CCC(=O)O)cc2)cc1 | i
O=C(O)CCCN1C(=O)c2cccc3c([N+](=O)[O-])ccc(c23)C1=O | i
COC(=O)C1=C(C)n2nnnc2NC1c1cc2ccccc2o1 (stereo not drawn) | i
O=C(CCc1ccccc1)Nc1ccc(N2CCCC2=O)cc1 | i
Cc1ccccc1-n1c(SCC(=O)Nc2ccccc2)nc2sc3c(c2c1=O)CCC3 | i

Other entries
molecule	Mtb growth
COC(=O)CN(c1ccc(C)c(Cl)c1)S(=O)(=O)c1ccc(C)cc1	i
O=C(Cc1ccc(Cl)cc1)Oc1cccc2cccnc12	i
Cc1ccc(NC(=O)Nc2ncccc2C)cc1	8%
CC(NC(=O)COc1ccccc1)C(=O)NC1=NCCS1 (stereo not drawn)	i
O=C(O)c1cccc2c1NC(c1cccc(C(F)(F)F)c1)C1C3CCC(C3)C21 (stereo not drawn)	i
CCN(CC)S(=O)(=O)c1ccc2nc(SC)sc2c1	2%
C=CCc1cc(OC)ccc1OCCCCNCCCOC	i
CC(C)NS(=O)(=O)c1ccc(OCC(=O)N2CCN(c3ccccc3F)CC2)cc1	i
COc1ccc(NC(=O)C(C)SCc2ccccc2)cc1Cl (stereo not drawn)	i
COc1ccccc1Nc1nc(N)nc(CN2CCc3ccccc3C2)n1	16%
O=C(NC(=S)Nc1ccc(N2CCCC2)c(Cl)c1)c1ccccc1Br	i
CC1(C)CC(=O)C2=C(C1)OC1(O)CC2C2COC1O2 (stereo not drawn)	i
CC(C)CNS(=O)(=O)c1ccc(OCC(=O)Nc2cc(C(F)(F)F)ccc2Cl)c(Cl)c1	i
CCOC(=O)N1CCN(C(=S)Nc2cc(C(=O)OC)cc(C(=O)OC)c2)CC1	i
NC(=O)c1c(NC(=S)NC(=O)c2ccc(Cl)cc2Cl)sc2c1CCCC2	i
Oc1cccc(C(=S)NCCc2ccccc2)c1	7%
CCOC(=O)C1CCN(C(=O)COc2cc(Cl)c(Cl)cc2Cl)CC1	i
FC(F)Oc1ccc(NC(=S)NCc2ccco2)cc1Cl	21%
Cc1ccc(CN2CCN(C(=O)c3cccc(Cl)c3)CC2)cc1	2%
O=C(Nc1ccc(OCC(=O)N2CCOCC2)cc1)c1ccc2c(c1)OCO2	i
COc1cc(C(=O)Nc2ccccc2C(F)(F)F)ccc1OCc1ccc(Cl)cc1	i
COc1ccccc1NC(=O)CSc1nnnn1-c1cccc(C)c1C	i
Cc1ccc2nc(NC(=O)C(F)(F)F)sc2c1	i
O=[N+]([O-])c1ccc(CSc2nnc(Cc3ccccc3)n2-c2ccc(F)cc2)cc1	1%
CN(C)C(CNS(=O)(=O)c1ccc(Cl)cc1)c1ccccc1 (stereo not drawn)	i

Next part
molecule	Mtb growth
C/C(=C\c1ccccc1)CN1CCC(C(=O)N2CCN(Cc3ccccc3)CC2)CC1	i
Cc1ccc(N(CC(=O)Nc2ccccc2C(=O)NC(C)C)S(C)(=O)=O)cc1Cl	i
CCCS(=O)(=O)N1CCN(S(=O)(=O)c2ccccc2)CC1	i
COc1ccccc1-n1c(/C=C/c2ccc(Br)cc2O)nc2ccccc2c1=O	6%
Cc1ccc(OCCn2c(=O)n(C)c3ccccc32)cc1	i
CCN(CC)S(=O)(=O)c1ccc(NS(=O)(=O)c2ccc(OC)c(OC)c2)cc1	i
CCOC(=O)c1c(C)nc2c(c1-c1ccc(OC)c(OC)c1)C(=O)c1ccccc1-2	i
Cc1ccc(C(=O)Nc2cccc(NC(=O)c3ccc(C)c(C)c3)n2)cc1C	i
COc1ccc(N2C(=O)CC(Nc3ccc(N4CCOCC4)cc3)C2=O)c(OC)c1 (stereo not drawn)	i
CCc1cccc(C)c1NC(=O)c1cc(C(=O)OC)cc([N+](=O)[O-])c1	i
COCCNC(=S)NNC(=O)Cc1ccc(OC)c(OC)c1	i
O=C(CSc1cccs1)Nc1cccc2ccccc12	5%
O=C(CCC(=O)c1ccccc1)NCCOc1ccccc1	i
CC1(C)CC(=O)C2=C(C1)Nc1cc(C(=O)c3ccccc3)ccc1NC2c1cccnc1 (stereo not drawn)	i
C=CCNC(=O)CN(Cc1ccc(F)cc1)S(=O)(=O)c1ccc(Cl)cc1	i
Cc1ccc2c(C)c(C(=O)Nc3nnc(C)s3)oc2c1	i
Cc1[nH]c2ccccc2c1Cc1nc2ccccc2[nH]1	i
COC(=O)c1ccc(NC(=O)CSc2nnc(Cc3ccccc3)n2C)cc1	i
CCn1c(Cc2ccccc2)nnc1SCC(=O)Nc1ccc(Br)cc1Cl	i
CCOC(=O)c1c(NC(=O)c2nc3ncccn3n2)sc2c1CCCCC2	i
Cc1cc(C)c(NC(=O)C2CCCN2CCCO)c(C)c1 (stereo not drawn)	i
N#C/C(=C/c1cn(CCC(N)=O)c2ccccc12)c1ccc2c(c1)OCO2	i
Cc1cc(C)nc(SCc2cccc(Br)c2)n1	3%
CCOC(=O)C1CCCN(S(=O)(=O)Cc2ccc(Cl)cc2)C1 (stereo not drawn)	i
COc1cc(CCN2C(=O)c3cccc4cccc(c34)C2=O)c(S(=O)(=O)NCCCO)cc1OC	i

(listing goes on)
molecule	Mtb growth
O=C(Nc1ccc2c(c1)OCCO2)c1cccs1	i
CCN1CCN(c2ccc(NC(=O)c3cccc4c(Cl)cccc34)cc2)CC1	i
COC(=O)c1c(C)oc2ccc(N(C(=O)c3ccncc3)S(=O)(=O)c3ccc(OC)cc3)cc12	i
O=C(CN1CCN(c2ccc(F)cc2)CC1)N1c2ccccc2CCc2ccccc21	7%
O=C(Nc1ccc(C(=O)OCc2ccc(Br)cc2)cc1)c1ccccc1	i
CCOc1ccc(OCC(=O)Nc2sc3c(c2C(N)=O)CCC(C)C3)cc1 (stereo not drawn)	i
CCc1ccc(N2CC(C(=O)Nc3ccc(N(C)C)cc3)CC2=O)cc1 (stereo not drawn)	i
CCN1C(=O)C(CC(=O)Nc2ccc(C(=O)OC)cc2)N(CCc2ccccc2)C1=S (stereo not drawn)	22%
CC(=O)c1c(C)oc2c(Cl)cc(NS(=O)(=O)c3cccc4ccccc34)cc12	i
O=C(Nc1cccc2ccccc12)C1OC2OC3(CCCCC3)OC2C2OC3(CCCCC3)OC12 (stereo not drawn)	32%
Cc1cc(C(F)(F)F)nc(SCC(=O)Nc2ccc(I)cc2)c1C#N	i

Of the compounds above, these have a CF3 group.
molecule	Mtb growth
C=CCn1c(Cc2ccc(OC)cc2)nnc1SCC(=O)Nc1cc(C(F)(F)F)ccc1Cl	i
O=C(NCc1ccco1)c1ccc(NS(=O)(=O)c2cccc(C(F)(F)F)c2)cc1	i
COc1cc([N+](=O)[O-])ccc1NC(=S)N1CCN(c2cccc(C(F)(F)F)c2)CC1	i
O=C(O)c1cccc2c1NC(c1cccc(C(F)(F)F)c1)C1C3CCC(C3)C21 (stereo not drawn)	i
CC(C)CNS(=O)(=O)c1ccc(OCC(=O)Nc2cc(C(F)(F)F)ccc2Cl)c(Cl)c1	i
COc1cc(C(=O)Nc2ccccc2C(F)(F)F)ccc1OCc1ccc(Cl)cc1	i
Cc1ccc2nc(NC(=O)C(F)(F)F)sc2c1	i
Cc1cc(C(F)(F)F)nc(SCC(=O)Nc2ccc(I)cc2)c1C#N	i

Not all compounds are listed; rates above refer to the full screens.
